Mtb hypoxia inh – PubChem AID 1159583 | M. tuberculosis hypoxia-regulated fluorescent reporter, fluorescence | fluorescence inhibition, % (concentration not given with the values) | 300,000 compounds, 0.1% hits;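 active = 35 to 45% if threefold the growth effect, above 45% if 1.5-fold the growth effect; inactive = the rest, general growth blockers included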;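 also: wells of about 50 µL received 100 nL stock; 0% = vehicle wells and 100% = reference inhibitor wells; whole bacteria with a GFP reporter of the hypoxia response; strong numbers were not always called active; many hits fall short of the cut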
BJeLR lethal – MLPCN primary cell-based screen for lethality selective to Ras in HRASV12 cells; BJeLR (HRASV12) viability, CellTiter-Glo ATP luminescence, 48 h; reference of the scale not given here; inhibition, % (no concentration beside the values); 300,000 compounds, 0.17% hits; AID 1554, 2009;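 active = replicate mean above 50%; inconclusive = above 50% but judged a plate artefact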;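 also: 50 nL library stock added to about 25 µL; numbers are from one replicate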
Bead autofluor – counter-screen for toxin protease inhibitors: compound fluorescence; AID 624483; 360,000 compounds, 3.1% hits; compound autofluorescence counterscreen, microsphere flow cytometry; hits give high values; fluorescence intensity (no concentration beside the values);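 active = at least 3 SD above the mean of all compounds, about 16000 in these data; inconclusive = too few beads counted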;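 also: 100 nL of 1 mM stock went into each well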
PrP 5UTR inh – inhibition of PrP 5' UTR reporter expression; cell-based PrP 5' UTR mRNA reporter, plate reader; inhibition, % (concentration not given with the values); 340,000 compounds, 0.35% hits; AID 488862, 2010;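 active = every replicate at 50% or more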;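 also: 0 = median of the neutral control wells; tested in H4 reporter cells; numbers are from one replicate; inactives centre near -14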
Sa RN4220 lethal – growth inhibition of S. aureus RN4220, primary screen, OD600. AID 1259311, 2017. inhibition, % (no concentration beside the values). 16 h. 330,000 compounds, 0.33% hits;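 active = z-score of -3 or lower and OD600 up to 0.18 on both plates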;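 also: plate controls were untreated cells for no effect and reference antibiotic for full effect; stock transfer was 100 nL into about 80 µL; one replicate is shown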
Sa ugtP lethal – growth inhibition of ugtP-null S. aureus, primary screen, RN4220 ugtP deletion, OD600; 16 h; some inactives read as strong as hits; growth inhibition, % (test concentration not listed); 330,000 compounds, 0.54% hits;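 active = z-score under -3 and OD600 up to 0.15 on both plates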;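 also: plate controls were untreated wells for no effect and antibiotic for full effect; wells of about 80 µL received 100 nL stock; the first replicate is given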
Mtb hypoxia inh growth – second read-out of Mtb hypoxia inh, no call of its own (marks repeat the call); growth inhibition, %; measured here: M. tuberculosis growth (absorbance);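 0% = vehicle and 100% = reference antibiotic; read after six days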
Numbers without * were called inactive; ? = inconclusive; nt = not tested or not shown; & = joins results of further samples.

SMILES	Mtb hypoxia inh	Mtb hypoxia inh growth	BJeLR lethal	Bead autofluor	PrP 5UTR inh	Sa RN4220 lethal	Sa ugtP lethal
Brc1cccc(OCCCN2CCCCCC2)c1	-5	15	-5	3084	-7	0.1	5
CCNC(=O)NC(=O)COC(=O)CCCc1nc2ccccc2s1	-4	8	6	4494	-11	2.5	2
CC(C)Sc1nc(N)nc(-c2cccs2)c1C#N	nt	nt	-2	2741	-55	7.0	-29
CCN(CC(=O)NC(=O)Nc1ccccc1F)Cc1ccccc1	11	0	-11	6976	-6	3.0	0
COC(=O)Cn1c(CN2CCC(Cc3ccccc3)CC2)nc2c1c(=O)n(C)c(=O)n2C	7	3	2	7495	-77	2.9	3
CCOC(=O)CSc1nnc(CNC(=O)c2cccs2)n1-c1cccc(C)c1	-1	8	nt	11940	nt	1.4	-6
O=C(NCCNS(=O)(=O)c1ccc(Cl)cc1)c1cc(OCC(F)(F)F)ccc1OCC(F)(F)F	-1	2	-3	8957	-12	-1.8	4
COc1ccc(C2c3[nH]c4ccccc4c3CCN2C(=O)Cc2nonc2C)c(F)c1 (centres undefined)	15	-3	-1	4337	-44	1.2	1
COc1ccc2c(c1)OCC1C2N2C(=O)CNC(=O)[C@@]2(C)C1c1ccccc1 (some centres undefined)	19	11	nt	nt	nt	6.9	2
O=C(CC1C(=O)NCCN1Cc1ccc(F)c(F)c1)NCCCn1ccnc1 (centres undefined)	-5	0	3	4975	-27	-2.3	-1
CCOC(=O)c1cccc(NC(=O)CCc2nnc3ccc(N4CCCCC4)nn23)c1	11	-1	4	4753	-6	2.4	3
CCOc1ccc(C(=O)N2CCN(c3ccccc3)CC2)cc1	nt	nt	2	4293	-21	nt	nt
O=C1CC(N2CCC(c3nc4ccccc4[nH]3)CC2)C(=O)N1c1cccc(F)c1 (centres undefined)	-1	10	-5	2499	-8	3.2	2
O=C(CSc1nnc(COc2ccc(Cl)cc2)o1)N1CCCC1	3	8	4	5822	-6	3.8	4
COC(=O)c1cn(NC(=O)/C=C/c2cc(OC)ccc2OC)c(=O)c2ccccc12	4	3	-3	2044	-11	-5.1	8
Fc1cccc(C2NN=C(c3ccccc3)S2)c1 (centres undefined)	1	1	6	2136	-92	1.0	4
Cc1ccc(C(=O)N2CCN(c3ccc([N+](=O)[O-])cc3)CC2)o1	7	13	-8	5246	-5	1.0	3
CCn1c(CNc2ccc(Cl)cc2)nnc1SCc1ccc(C)cc1	nt	nt	-8	4598	-1	-6.4	-6
CC1CCCCN1C(=O)Cn1cnc2c1c(=O)n(C)c(=O)n2C (centres undefined)	14	4	2	2681	-13	2.5	5
CCn1cc(CNC(=O)c2ccc(OC3CCN(Cc4ccccn4)CC3)cc2)cn1	nt	nt	8	4635	2	nt	nt
CC(NC(=O)NC(=O)c1ccc(Cl)cc1Cl)C1CC1 (centres undefined)	-1	9	-1	4109	-64	2.6	16
COc1ccc(C(=O)NCC(C)(C)N2CCOCC2)cc1S(=O)(=O)N1CCCC1	-6	3	nt	3818	-38	-0.7	-4
COC(=O)[C@@]12CCCN1C(c1ccc(-c3ccc(OC)cc3)c(OC)c1)C1C(=O)N(C)C(=O)C12 (some centres undefined)	-7&-1	5&-9	nt	nt	nt	6.1&2.6	14&1
CCN(CC)C(=O)/C(=C/c1cccc([N+](=O)[O-])c1)NC(=O)c1ccco1	nt	nt	-4	3672	-10	nt	nt
COc1c(C(=O)NCCSC(C)(C)C)ccc2ccccc12	9	4	1	2637	-40	2.0	-6
Cc1ccc(NC(=O)C2CCCN2C(=O)Oc2ccccc2)cc1C (centres undefined)	6	7	-4	17854*	-10	0.4	-7
O=C(O)Cn1cc2c(n1)CCCC2	nt	nt	5	4727	-13	0.2	3
Cc1ccc(SCC(=O)NNC(=O)c2ccccc2)cc1C	3	10	13	5130	-16	-0.2	10
O=C(N/N=C\c1cn[nH]c1-c1ccc(Cl)cc1)c1cccs1	nt	nt	-5	?	6	nt	nt
COc1ccc(CCNC(=O)Nc2cccs2)c(OC)c1	-3	-2	12	4212	-7	1.9	1
COc1ccc(COC(=O)c2cccc(S(=O)(=O)N3CCN(C(C)=O)CC3)c2)cc1F	3	11	5	?	-21	4.8	7
O=C1NC(=O)C(Nc2ccc(Cl)c(Cl)c2)C(=O)N1	13	7	nt	3733	-16	1.4	-2
CC(=O)N1CCCc2cc(S(=O)(=O)CCC(=O)Nc3cccc(C)c3C)ccc21	-1	-1	2	6458	-6	3.5	1
COc1ccc(S(=O)(=O)N2CCN(S(=O)(=O)c3ccc(C(F)(F)F)cc3)CC2)cc1C	-5	2	-6	3981	-6	1.2	4
COc1ccc(OC)c(N(CC(=O)N2CCC(C)CC2)S(=O)(=O)c2ccccc2)c1	2	5	9	20367*	-13	5.6	-1
O=C(COc1ccc(/C=N/NS(=O)(=O)c2ccccc2)cc1)Nc1cccc(Cl)c1	nt	nt	-11	3100	-8	nt	nt
COc1ccc([C@H]2C=C(C(=O)O)O[C@@H](OCc3ccc(CO)cc3)C2)cc1	nt	nt	3	4119	-24	nt	nt
COCCn1c(SCC(=O)c2ccccc2)nc2ccccc2c1=O	9	0	-6	3229	-22	3.4	12
Cc1nc(CSc2nc3[nH]ncc3c(=O)n2-c2ccccc2)cs1	nt	nt	5	2898	-7	-1.7	5
C(=NC12CN3CN(CN(C3)C1)C2)c1cccs1	1	7	-6	10177	-30	2.4	5
CC(=O)N1CCN(C(=O)c2ccc(S(=O)(=O)Nc3ccccc3Cl)cc2)CC1	2	3	8	5766	-8	5.5	-2
COc1cc2oc(=O)cc(-c3ccc(-c4ccc(C)cc4)cc3)c2c(OC)c1OC	-3	2	nt	3460	-17	6.9	49
CN(C(=O)c1ccco1)c1nc(-c2ccc(Cl)cc2)cs1	nt	nt	2	4486	-36	nt	nt
CCCN(CCC)C(=O)c1c(NC(=O)CC)sc2c1CCCCC2	-6	3	5	?	-1	1.5	-2
Cc1ccc(NCc2nnc(SCC(=O)Nc3cccc(O)c3)n2CC2CCCO2)c(C)c1 (centres undefined)	-11	6	2	3237	-13	-0.9	0
O=C(Nc1ccccc1)C1CCN(C(=O)c2ccco2)CC1	8	-2	2	3636	-14	3.5	-5
N#CCN1C(=O)C2CCCN2c2ccc(S(=O)(=O)N3CCOCC3)cc21 (centres undefined)	-5	4	3	2231	-15	-2.7	3
Cc1cc(S(=O)(=O)N2CCOCC2)ccc1OCC(=O)Nc1cccc(C(F)(F)F)c1	2	3	-13	3648	-24	1.9	-2
COc1cccc(C(=O)NN=C(C)CC(=O)Nc2ccc(N(C)C)cc2)c1	1	1	nt	nt	nt	2.4	-4
O=C(c1ccc(CSc2nc3ccncc3[nH]2)cc1)N1CCCCCC1	15	11	3	6155	-11	5.0	15
CCOC(=O)c1cc(-c2cccs2)nc2c1c(C)nn2-c1ccccn1	4	7	11	4820	-7	17	26
CCC(=O)CN(Cc1cc(OC)ccc1OC)S(=O)(=O)c1ccccc1Br	2	2	nt	4036	-19	3.9	8
CC(C)CNC(=O)COC(=O)c1ccc([N+](=O)[O-])cc1Cl	10	19	-4	2165	-43	15	-6
O=C(CNC(=O)c1ccccc1)NCC(=O)OCc1ccc(Cl)cc1	8	6	1	22352*	-11	6.0	-3
O=C(NN=C1CCCC1)C1COc2ccccc2O1 (centres undefined)	9	4	3	4746	-20	1.6	3
Cc1cnc(NC(=O)c2cccs2)s1	2	1	5	4526	-101	-1.7	3
COc1cc(C(=O)NNC(=O)c2nn(C)c(=O)c3ccccc23)cc(OC)c1OC	3	0	nt	3535	-26	-1.2	3
O=C(NCCc1ccccc1)c1cccnc1N1CCCCCC1	12	5	-10	7829	-23	3.9	6
Cc1ccc(Br)cc1S(=O)(=O)N1CCN(c2ccccc2)CC1	16	17	-3	3417	-10	-4.9	13
COc1ccc(NC(=S)N(CCN2CCOCC2)Cc2cc3cc4c(cc3[nH]c2=O)OCCO4)cc1	-1	3	-12	4071	6	4.5	14
Going on with the list.
SMILES	Mtb hypoxia inh	Mtb hypoxia inh growth	BJeLR lethal	Bead autofluor	PrP 5UTR inh	Sa RN4220 lethal	Sa ugtP lethal
CCCCNC(=O)CSc1nc2ccc(N3CCOCC3)cc2c(=O)n1CCc1ccccc1	-9	-9	-2	10567	-5	4.6	-12
COc1ccc(Sc2ccc(/C=C3\C(=O)NN(c4ccccc4)C3=O)o2)cc1	21	7	9	2642	-22	1.8	3
Cc1ccc(C(=O)N2CCOCC2)cc1S(=O)(=O)N1CCCC1	7	7	10	6069	-5	-1.3	3
OCC1(CC2CCCCO2)CCN(Cc2cccc(O)c2)CC1 (centres undefined)	15	4	-2	3466	-3	3.9	9
Cc1ccc(C(=O)N/N=C/C2=Cc3ccccc3OC2C)cc1 (centres undefined)	nt	nt	5	2464	-36	nt	nt
C=CCN(C(=O)c1csnn1)C(C(=O)NC1CCCC1)c1ccc(OC)cc1 (centres undefined)	6	0	-3	3763	-19	2.7	8
CCC(CC)COC(=O)C1=C(C)NC(=O)NC1c1ccc(OC)cc1 (centres undefined)	10	1	-3	3619	-13	8.8	3
Cc1nn(CC(=O)NCCCN2CCN(Cc3ccccc3)CC2)c(=O)c2cc(-c3ccccc3)nn12	12	7	-14	5901	-18	3.3	-2
COc1ccc2[nH]c3c(c2c1)CCN1C(=O)C(CC(=O)NCCCn2ccnc2)C[C@H](C(=O)N2CCOCC2)[C@@]31C (some centres undefined)	-14	1	nt	2902	2	-4.0	-2
C=CC[C@H]1CC(C)=C[C@H](CC=C)N1	-1	5	-2	5102	-26	1.1	5
O=C(Cn1nc(C(F)(F)F)c2c1CCCC2)N1CCOCC1	11	4	-8	4776	-15	8.6	12
O=C(C=Cc1ccco1)Nc1ccc(Oc2ccc(Cl)cc2)cc1	9	-1	nt	nt	nt	-9.4	-29

The final 2 entries of the section above open the next one:
SMILES	Mtb hypoxia inh	Mtb hypoxia inh growth	BJeLR lethal	Bead autofluor	PrP 5UTR inh	Sa RN4220 lethal	Sa ugtP lethal
O=C(Cn1nc(C(F)(F)F)c2c1CCCC2)N1CCOCC1	11	4	-8	4776	-15	8.6	12
O=C(C=Cc1ccco1)Nc1ccc(Oc2ccc(Cl)cc2)cc1	9	-1	nt	nt	nt	-9.4	-29
CC1CCC[C@H](O)CCCCCc2cc(O)cc(O)c2C(=O)O1 (some centres undefined)	nt	nt	6	5903	12	nt	nt
O=C(Nc1ccccc1C(=O)N1CCOCC1)c1ccc([N+](=O)[O-])cc1	10	13	-4	2192	-10	3.3	6
Cc1ccc(-n2nc(-c3ccc(N)cc3)cc2N)cc1	-5	5	2	6640	-40	-17	1
COC(=O)C1=C(c2ccccc2)C[C@@H]2CC[C@H]1N2C(=O)N1CCOCC1	nt	nt	-10	3902	-13	nt	nt
c1ccc(CCNCc2cccs2)nc1	5	2	nt	2914	-16	2.4	2
CCOc1cc(/C=C2/N=C(c3ccc4c(c3)OCO4)OC2=O)ccc1OC(C)=O	0	4	nt	?	-6	2.8	-1
CCOC(=O)/C=C1\SCC(=O)N1CC(=O)Nc1ccccc1OC(F)F	10	8	-12	9021	-28	5.3	-1
CCOc1ccc(NC(=S)Nc2ccccc2C2CC2)cc1	22	11	-4	2770	-19	2.5	14
CC(=O)c1cccc(NC(=O)NCc2ccccn2)c1	7	3	5	8316	-41	0.6	10
Nc1cc(=O)nc(SCC(=O)Nc2ccccc2Cl)n1-c1ccccc1	-8	1	-9	4713	-3	-1.0	1
C(=N\Nc1ccc(-n2ccnc2)nn1)/c1ccccc1	nt	nt	-18	8849	-5	nt	nt
COc1ccc(C(=O)Nc2ccccc2C(=O)Nc2cccnc2)cc1	-6	-8	-1	3068	-19	4.8	1
O=C(CN1C(=O)C2CCCCC2C1=O)N1CCN(c2ccccc2)CC1 (centres undefined)	-2	5	10	3507	4	1.3	-13
COCCNC(=O)C1CC(c2ccccc2[N+](=O)[O-])=NO1 (centres undefined)	3	-1	1	4029	-19	1.8	-2
COC(=O)c1ccc(/C=N/OCC(=O)NC2CCCC(C)C2C)cc1 (centres undefined)	nt	nt	0	4375	1	nt	nt
Cc1ccc(Oc2cc(NC(=O)CCCn3nc([N+](=O)[O-])cc3C)cc([N+](=O)[O-])c2)cc1	6	9	10	6847	-17	0.2	-18
CCN=c1scc(-c2cccs2)n1N=Cc1cc(OC)ccc1O	-1	1	nt	nt	nt	0.0	19

High-throughput results: PubChem BioAssay, several laboratories
